GIRK2 act: GIRK2 channel activation. P48051. HEK293-GIRK2 thallium flux, Thallos fluorescence. calls only for hits at 25 µM. 63,000 compounds, 0.05% hits;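 active = among the strongest 0.2% of first-round signals and kept after retests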;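 also: first round at about 10 µM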
Target sequence (P48051 whole entry, looked up): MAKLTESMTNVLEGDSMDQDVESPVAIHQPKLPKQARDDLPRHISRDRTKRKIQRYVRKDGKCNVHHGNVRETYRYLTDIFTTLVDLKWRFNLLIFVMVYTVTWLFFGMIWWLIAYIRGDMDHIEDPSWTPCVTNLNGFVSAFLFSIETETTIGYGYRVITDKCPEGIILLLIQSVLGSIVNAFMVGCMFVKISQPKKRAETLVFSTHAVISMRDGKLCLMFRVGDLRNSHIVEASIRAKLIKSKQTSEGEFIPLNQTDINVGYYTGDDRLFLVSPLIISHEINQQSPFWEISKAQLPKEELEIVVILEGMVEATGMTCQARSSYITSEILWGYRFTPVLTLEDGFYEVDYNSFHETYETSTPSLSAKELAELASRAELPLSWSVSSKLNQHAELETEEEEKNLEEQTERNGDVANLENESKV
Calls only. A portion of the library, so the mix of outcomes need not match the whole.

Results for COc1ccc(S(=O)(=O)NCC(c2cccnc2)N2CCN(c3ccccc3F)CC2)cc1 (centres undefined) ?
GIRK2 act: inactive

What do the screens show for `COc1cccc(NC(=O)Cn2cccc(-c3nc(-c4ccc(OC)c(OC)c4)no3)c2=O)c1`?
GIRK2 act: inactive

What do the screens show for `CCOC(=O)Cc1csc(NS(=O)(=O)c2cn(C)nc2C)n1`?
GIRK2 act: inactive

What do the screens show for `O=C(NCC#CCOc1cccc(C(F)(F)F)c1)c1cccs1`?
GIRK2 act: inactive

What do the screens show for `CC(C)(C)NC(=O)N1CCN(CCNC(=O)c2ccsc2)CC1`?
GIRK2 act: inactive

What do the screens show for `Cc1ccccc1-c1ccc(N2CCN(C(=O)Nc3ccc(F)c(F)c3)CC2)nn1`?
GIRK2 act: inactive

What do the screens show for `COc1ccc(S(=O)(=O)NCC2(c3cccs3)CCOCC2)cc1Cl`?
GIRK2 act: inactive

What do the screens show for `CS(=O)(=O)N1CCN(C(=O)COc2ccc3c(c2)C(=O)CC3)CC1`?
GIRK2 act: inactive

What do the screens show for `CC(NC(=O)CCc1csc(NC(=O)Nc2cccc(Cl)c2)n1)c1ccccc1` (centres undefined)?
GIRK2 act: inactive

What do the screens show for `O=C(NC(C(=O)N1CCN(C(=O)c2ccccc2)CC1)S(=O)(=O)c1ccc(F)cc1)c1ccco1` (centres undefined)?
GIRK2 act: inactive

Next part (3 carried over from the part before).
What do the screens show for `CS(=O)(=O)N1CCN(C(=O)COc2ccc3c(c2)C(=O)CC3)CC1`?
GIRK2 act: inactive

What do the screens show for `CC(NC(=O)CCc1csc(NC(=O)Nc2cccc(Cl)c2)n1)c1ccccc1` (centres undefined)?
GIRK2 act: inactive

What do the screens show for `O=C(NC(C(=O)N1CCN(C(=O)c2ccccc2)CC1)S(=O)(=O)c1ccc(F)cc1)c1ccco1` (centres undefined)?
GIRK2 act: inactive

How did C#CC(C)(CC)OCC(O)CN1CCc2ccccc2C1 (centres undefined) do in these assays?
GIRK2 act: inactive

Results for O=C(Nc1ccc2c(c1)C(=O)N1CCCCC1CCO2)c1cc(C2CC2)on1 (centres undefined) ?
GIRK2 act: inactive

What do the screens show for `COc1cc(NC(=O)CCn2ccc(=O)[nH]c2=O)ncn1`?
GIRK2 act: inactive

What do the screens show for `COc1ccccc1-c1c(C)oc2cc(OCC(=O)OCc3ccccc3)ccc2c1=O`?
GIRK2 act: inactive

Results for CC(=O)N1CCC(C(=O)N2CCOCC2CN(C)CCO)CC1 (centres undefined) ?
GIRK2 act: inactive

What do the screens show for `O=C(NCCCN1CCOCC1)c1ccc(-n2nc(C(F)(F)F)cc2-c2cccs2)cc1`?
GIRK2 act: inactive

Results for COC(=O)c1cc(OC)c(OC)cc1NC(=O)CSc1nc2ccccc2nc1N1CCOCC1 ?
GIRK2 act: inactive

Results for O=C(CN1CC(c2nc(Cc3ccccc3)no2)C1)NCc1ccc(F)cc1 ?
GIRK2 act: inactive

What do the screens show for `COC(=O)c1ccc(CN2CCN(CC(=O)c3ccco3)CC2)cc1`?
GIRK2 act: inactive

How did CS(=O)(=O)N1CCc2nc(NC(=O)Nc3cccc(Cl)c3)sc2C1 do in these assays?
GIRK2 act: inactive

By substructure, those above containing fluorine
Results for COc1ccc(S(=O)(=O)NCC(c2cccnc2)N2CCN(c3ccccc3F)CC2)cc1 (centres undefined) ?
GIRK2 act: inactive

What do the screens show for `O=C(NCC#CCOc1cccc(C(F)(F)F)c1)c1cccs1`?
GIRK2 act: inactive

What do the screens show for `Cc1ccccc1-c1ccc(N2CCN(C(=O)Nc3ccc(F)c(F)c3)CC2)nn1`?
GIRK2 act: inactive

What do the screens show for `O=C(NC(C(=O)N1CCN(C(=O)c2ccccc2)CC1)S(=O)(=O)c1ccc(F)cc1)c1ccco1` (centres undefined)?
GIRK2 act: inactive

What do the screens show for `O=C(NCCCN1CCOCC1)c1ccc(-n2nc(C(F)(F)F)cc2-c2cccs2)cc1`?
GIRK2 act: inactive

Results for O=C(CN1CC(c2nc(Cc3ccccc3)no2)C1)NCc1ccc(F)cc1 ?
GIRK2 act: inactive

(listing goes on)
Results for CCn1nc(C(=O)Nc2cccc3ccccc23)ccc1=O ?
GIRK2 act: inactive

Results for Cc1nnc(CNC(=O)c2cccc(-n3cnnn3)c2)o1 ?
GIRK2 act: inactive

What do the screens show for `COc1ccc(-n2c(C)c(C)n3c4c(=O)n(CC(C)C)c(=O)n(C)c4nc23)c(OC)c1`?
GIRK2 act: inactive

Results for Cc1ccnc(NC(=O)C2CCN(c3ccc(-n4cccn4)nn3)CC2)c1 ?
GIRK2 act: inactive

What do the screens show for `COc1ccc(CC(C)(O)CNS(=O)(=O)c2cccc(Cl)c2C)cc1` (centres undefined)?
GIRK2 act: inactive

Results for CCOC(=O)NCc1ncc(-c2ccc(OC)cc2)[nH]1 ?
GIRK2 act: inactive

How did O=c1ccc(-n2ccnc2)nn1CCNS(=O)(=O)c1ccc(F)c(Cl)c1 do in these assays?
GIRK2 act: inactive

What do the screens show for `Cc1noc(C)c1S(=O)(=O)NCC1CCS(=O)(=O)C1` (centres undefined)?
GIRK2 act: inactive

What do the screens show for `CC1CCc2cc(F)ccc2N1C(=O)CN1CCN(c2cccc(Cl)c2)C1=O` (centres undefined)?
GIRK2 act: inactive

Results for COc1ccc(-n2nnnc2SCC(=O)Nc2ncc(Cc3ccccc3)s2)cc1 ?
GIRK2 act: inactive

Fetched one by one from above, two records:
Results for COc1ccc(-n2nnnc2SCC(=O)Nc2ncc(Cc3ccccc3)s2)cc1 ?
GIRK2 act: inactive

What do the screens show for `Cc1noc(C)c1S(=O)(=O)NCC1CCS(=O)(=O)C1` (centres undefined)?
GIRK2 act: inactive

(listing goes on)
Results for CCOc1ccc(-c2ccc(=O)n(C(C)C(=O)Nc3nnc(C)s3)n2)cc1 (centres undefined) ?
GIRK2 act: inactive

How did O=C(CCCS(=O)(=O)Cc1ccccc1)Nc1ccc2c3c(cccc13)CC2 do in these assays?
GIRK2 act: inactive

What do the screens show for `O=C(NCCN1CCOCC1)c1ccc(S(=O)(=O)N2CCCC2)o1`?
GIRK2 act: inactive

What do the screens show for `CCN(CC)C(=O)Cn1c(=O)n(CC2CCC(C(=O)N3CCOCC3)CC2)c(=O)c2sccc21` (centres undefined)?
GIRK2 act: inactive

What do the screens show for `Oc1cc(OCCN2CCOCC2)ccc1-c1[nH]ncc1-c1ccc(Cl)cc1`?
GIRK2 act: inactive

How did CC(C)(Oc1ccc(Cl)cc1)C(=O)NCc1ccsc1 do in these assays?
GIRK2 act: inactive

What do the screens show for `Cc1cc(C)cc(-n2ccc(=O)c(-c3nc(-c4ccc(C)c(C)c4)no3)n2)c1`?
GIRK2 act: inactive

How did O=C(CCc1csc(NC(=O)c2ccc(=O)[nH]c2)n1)NC1CCCC1 do in these assays?
GIRK2 act: inactive

Results for O=C(Cn1cc(-c2nc(-c3cccs3)no2)ccc1=O)NCCc1ccc(Cl)cc1 ?
GIRK2 act: inactive

How did COc1cccc(CNC(=O)COc2cc(C)nc(N3CCCCC3)n2)c1OC do in these assays?
GIRK2 act: inactive

What do the screens show for `Cc1cc2oc3c(c(=O)c2cc1C)C(c1ccccc1)N(CCN(C)C)C3=O` (centres undefined)?
GIRK2 act: inactive

Results for O=C(NCc1ccccc1)N1CCN(c2cc(N3CCOCC3)ncn2)CC1 ?
GIRK2 act: inactive

What do the screens show for `COc1cc(/C=C2\SC(=S)N(c3ccccc3)C2=O)ccc1OCC(=O)Nc1cccc(O)c1`?
GIRK2 act: inactive

How did COc1ccc(-c2csc(-n3nc(C)cc3NC(=O)c3cccc(OC)c3OC)n2)cc1OC do in these assays?
GIRK2 act: inactive

How did O=C1/C(=C/c2ccc([N+](=O)[O-])cc2)Oc2cc(OC(=O)N3CCOCC3)ccc21 do in these assays?
GIRK2 act: inactive

Results for O=c1ccc(-c2nc(-c3cnccn3)no2)cn1Cc1ccccc1C(F)(F)F ?
GIRK2 act: inactive

What do the screens show for `O=C(Nc1nc(CCC(=O)N2CCN(c3ncccn3)CC2)cs1)c1ccc(=O)[nH]c1`?
GIRK2 act: inactive

How did COc1nn(C)cc1C(=O)NCCC1CCCCN1S(=O)(=O)c1ccc(C)cc1 (centres undefined) do in these assays?
GIRK2 act: inactive

Results for Cn1nc(CNS(=O)(=O)c2ccc(OC(F)(F)F)cc2)cc1-c1cccs1 ?
GIRK2 act: inactive

Results for O=c1ccc(-n2cccn2)nn1CCNS(=O)(=O)c1ccc2c(c1)CCCC2 ?
GIRK2 act: inactive

How did C=CCNC(=S)Nc1nc(CC(=O)OCC)cs1 do in these assays?
GIRK2 act: inactive

What do the screens show for `Cc1cc(C)cc(NC(=O)CN2CCC(C(=O)Nc3ccc4sc(C)nc4c3)CC2)c1`?
GIRK2 act: inactive

Results for NC(=O)C1CCN(C(=O)COc2ccc3c(c2)C(=O)CC3)CC1 ?
GIRK2 act: inactive

Results for COc1cc(OC)cc(C(=O)Nc2ccc(-n3c(C)nc4ccccc4c3=O)cc2C)c1 ?
GIRK2 act: inactive

Results for O=S(=O)(NCC1COC2(CCCCC2)O1)c1ccc(N2CCCCS2(=O)=O)cc1 (centres undefined) ?
GIRK2 act: inactive

What do the screens show for `CC1(C)OCC2(CO1)CN(C(=O)C1CC1)C2`?
GIRK2 act: inactive

Results for Cc1ccc(S(=O)(=O)N2CCCC(c3nnc(-c4cccs4)o3)C2)cc1 (centres undefined) ?
GIRK2 act: inactive

How did CC(=O)O[C@H]1CC[C@H](C)[C@@]2(C)[C@H](OC(C)=O)c3c(C)coc3C(=O)[C@H]12 do in these assays?
GIRK2 act: inactive

How did CNC(=O)Cc1csc(NC(=O)c2csc(Nc3cc(C)ccc3OC)n2)n1 do in these assays?
GIRK2 act: inactive

What do the screens show for `CCC(C(=O)N1CCN(Cc2nc3ccccc3[nH]2)CC1)c1ccccc1` (centres undefined)?
GIRK2 act: inactive

How did O=C(Cn1cccc(S(=O)(=O)N2CCCCC2)c1=O)Nc1ccc(Cl)cc1 do in these assays?
GIRK2 act: inactive

How did Cc1c(C(=O)N2CCN(CCn3ccnc3-c3ccccc3)CC2)cnn1-c1ccccc1 do in these assays?
GIRK2 act: inactive

Results for COc1ccc(-n2nnc(C(=O)Nc3cccc(F)c3)c2C2CC2)cc1 ?
GIRK2 act: inactive

What do the screens show for `CCCCc1ccc(NC(=O)c2cc(=O)c(OCc3cccc(OC)c3)c[nH]2)cc1`?
GIRK2 act: inactive

What do the screens show for `COc1cccc(CC(=O)NCc2cc(-c3ccncc3)n(C)n2)c1`?
GIRK2 act: inactive

What do the screens show for `C#CCCNC(=O)c1ccc[nH]c1=O`?
GIRK2 act: inactive

How did Cc1nn(CC(=O)O)c(C)c1Cl do in these assays?
GIRK2 act: inactive

Results for CCOc1ccc(-c2cc3c(=O)n(CC(=O)Nc4ccccc4C(=O)OC)ncn3n2)cc1 ?
GIRK2 act: inactive

How did Cc1nc(N2CCN(S(=O)(=O)c3ccccc3)CC2)cc(-n2cccc2)n1 do in these assays?
GIRK2 act: inactive

Results for CC(=O)N1N=C(c2ccc(C)cc2)CC1c1cn(-c2ccccc2)nc1-c1ccco1 (centres undefined) ?
GIRK2 act: inactive

What do the screens show for `C/C=C/Cn1c(=O)c2c(nc3n(-c4ccccc4Cl)c(C)cn23)n(C)c1=O`?
GIRK2 act: inactive

How did COc1ccc(-n2c(C)nc3ccc(NC(=O)c4ccccc4Cl)cc3c2=O)cc1 do in these assays?
GIRK2 act: inactive

How did Cc1ccc2oc(=O)cc(CN3CCN(c4ccc(F)cc4)CC3)c2c1 do in these assays?
GIRK2 act: inactive

What do the screens show for `COc1ccc(C(=O)N2CCN(c3oc(-c4cccs4)nc3C#N)CC2)cc1`?
GIRK2 act: inactive

Results for COCCn1c(=O)c2c(nc3n2CCCN3c2ccc(C)cc2)n(C)c1=O ?
GIRK2 act: inactive

What do the screens show for `O=C(c1ccoc1)N1CCC(CNS(=O)(=O)CCc2ccccc2)CC1`?
GIRK2 act: inactive

How did CCSc1nn(CC(=O)Nc2ccc(C)cc2)c(N)c1S(=O)(=O)c1ccc(OC)cc1 do in these assays?
GIRK2 act: inactive

Results for CCOC(=O)c1cnc2cc(C(F)(F)F)ccc2c1NCC(C)O (centres undefined) ?
GIRK2 act: inactive

What do the screens show for `O=S(=O)(c1ccc(F)cc1)N1CN(Cc2ccco2)c2nc3ccccc3nc21`?
GIRK2 act: inactive

Results for COc1ccc(C(=O)NCCS(=O)(=O)NCc2cccnc2)cc1 ?
GIRK2 act: inactive

Results for O=C(COc1ccc2ccccc2c1)NCC(c1cccs1)N1CCOCC1 (centres undefined) ?
GIRK2 act: inactive

How did Cc1cccc(NC(=O)Cn2nc(N3CCCC3)c3ccccc3c2=O)c1C do in these assays?
GIRK2 act: inactive

How did COc1ccccc1-n1c(C)c(C)n2c3c(=O)n(CC(N)=O)c(=O)n(C)c3nc12 do in these assays?
GIRK2 act: inactive

Results for CCOc1ccc(-c2ccc(OCCNC(=O)c3c(OC)cccc3OC)nn2)cc1 ?
GIRK2 act: inactive

Results for O=C(c1ccsc1)N1CCC(Oc2ccc(C(F)(F)F)cn2)CC1 ?
GIRK2 act: inactive

How did Cc1ccc(S(=O)(=O)NCCn2nc(C(F)(F)F)n(C)c2=O)cc1C do in these assays?
GIRK2 act: inactive

How did O=C(Cn1nc(-c2ccco2)c2sc(N3CCCC3)nc2c1=O)Nc1ccc(C(F)(F)F)cc1 do in these assays?
GIRK2 act: inactive

What do the screens show for `CN(C)S(=O)(=O)c1ccc(-c2nc(C#N)c(NCCCn3ccnc3)o2)cc1`?
GIRK2 act: inactive

How did COc1ccc(NC(=O)Nc2ccc3nc(C)n(-c4ccc(F)cc4)c(=O)c3c2)c(OC)c1 do in these assays?
GIRK2 act: inactive

How did CCN(CC)S(=O)(=O)c1ccc(C(=O)N2c3ccccc3CC2C(N)=O)cc1 (centres undefined) do in these assays?
GIRK2 act: inactive

Results for CC(C)Oc1ccc(C(=O)Nc2ccc(N3CCCCS3(=O)=O)cc2)cc1 ?
GIRK2 act: inactive

Results for O=C(N1CCC(CSCc2ccco2)CC1)C1(c2ccccc2)CCOCC1 ?
GIRK2 act: inactive

How did O=C(CSc1ccc(F)cc1)N1CCC(c2nnc(-c3ccco3)o2)CC1 do in these assays?
GIRK2 act: inactive

What do the screens show for `CS(=O)(=O)c1cccc2sc(N3CCN(C(=O)/C=C/c4cccs4)CC3)nc12`?
GIRK2 act: inactive

What do the screens show for `O=C(CN1C(=O)c2ccccc2OC(c2ccccc2)C1=O)c1ccc2c(c1)OCCO2` (centres undefined)?
GIRK2 act: inactive

What do the screens show for `O=C(Nc1ccc(F)cc1)OC1CCCC(NC(=O)c2cc(=O)c3ccccc3o2)C1` (centres undefined)?
GIRK2 act: inactive
